PINK1 modulator: PINK1 expression modulation | PINK1 immunofluorescence, high-content cytometry, 24 h | Potency, µM (top dose mostly 76.6 µM), inactives show at the top dose activation (PINK1 increase), most hits filed as activators | actives 0.2% (n = 410,000); active = well fitted activation curve with a large enough effect; inconclusive = small, poorly fitted or top-dose-only effect; inactive = flat fitted curve, though single readings scatter; cell line not stated here;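 also: potency is read from the fitted curve at half-maximal effect; % of control where 0% means no effect; nearly all actives have a fitted effect of over 65% in size; a mitochondrial uncoupler was the plate control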
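Cells are seeded, rested 12 hours, then given compound at five concentrations or DMSO for 24 hours. After fixation, blocking and antibody staining, PINK1 amount and mitochondrial localization are scored; CCCP serves as control.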
D2 agonist: human D2 receptor agonism in beta-arrestin assay | P14416 | DiscoveRx PathHunter D2 beta-arrestin, luminescence, 90 min; 100% = 57 uM dopamine signal | activation, % (test concentration not listed) | actives 0.084% (n = 360,000); in the data active = activation above about 40%; inconclusive = about 15% to 40%; inactive = below about 15%; also: compound concentration not given in the record; the text of the record calls up to 30% inactive
Target sequence (P14416 whole entry, looked up): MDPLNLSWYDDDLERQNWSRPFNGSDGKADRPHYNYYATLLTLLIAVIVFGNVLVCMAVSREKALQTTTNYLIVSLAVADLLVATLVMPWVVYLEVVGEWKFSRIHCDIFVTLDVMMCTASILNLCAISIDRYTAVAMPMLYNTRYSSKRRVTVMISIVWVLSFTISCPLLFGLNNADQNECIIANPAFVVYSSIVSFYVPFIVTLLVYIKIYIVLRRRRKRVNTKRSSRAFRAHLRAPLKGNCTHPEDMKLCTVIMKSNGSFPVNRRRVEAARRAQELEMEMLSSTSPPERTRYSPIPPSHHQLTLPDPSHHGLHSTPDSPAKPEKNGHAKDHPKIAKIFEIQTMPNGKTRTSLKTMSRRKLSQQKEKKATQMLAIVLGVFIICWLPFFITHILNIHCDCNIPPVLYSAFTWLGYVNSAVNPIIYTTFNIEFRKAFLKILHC
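Agonist mode: compounds alone added to overnight-plated D2 PathHunter cells for 90 min at 37 C, with 57 uM final dopamine (EC100) defining full response. Beta-arrestin recruitment detected by chemiluminescent reagent, read after 1 h at ambient temperature.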
TRPML1 inh: blocks the human TRPML1 channel; Q9GZU1; TRPML1-inducible cells, Ca2+ dye fluorescence, FDSS; active compounds read low; inhibition of EC80 agonist-evoked calcium signal; activity change, negative = inhibition, % (concentration not given with the values); actives 0.02% (n = 390,000); AID 624415; in the data active means activity change below about -50%; inconclusive means about -30% to -50%; inactive means above about -30%;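 also: stimulus is agonist 54-4 at its EC80 concentration; % is scaled to controls: 0 for no effect and ±100 for the full control effect; the text of the record puts the active cut at -80%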
Target sequence (Q9GZU1 whole entry, looked up): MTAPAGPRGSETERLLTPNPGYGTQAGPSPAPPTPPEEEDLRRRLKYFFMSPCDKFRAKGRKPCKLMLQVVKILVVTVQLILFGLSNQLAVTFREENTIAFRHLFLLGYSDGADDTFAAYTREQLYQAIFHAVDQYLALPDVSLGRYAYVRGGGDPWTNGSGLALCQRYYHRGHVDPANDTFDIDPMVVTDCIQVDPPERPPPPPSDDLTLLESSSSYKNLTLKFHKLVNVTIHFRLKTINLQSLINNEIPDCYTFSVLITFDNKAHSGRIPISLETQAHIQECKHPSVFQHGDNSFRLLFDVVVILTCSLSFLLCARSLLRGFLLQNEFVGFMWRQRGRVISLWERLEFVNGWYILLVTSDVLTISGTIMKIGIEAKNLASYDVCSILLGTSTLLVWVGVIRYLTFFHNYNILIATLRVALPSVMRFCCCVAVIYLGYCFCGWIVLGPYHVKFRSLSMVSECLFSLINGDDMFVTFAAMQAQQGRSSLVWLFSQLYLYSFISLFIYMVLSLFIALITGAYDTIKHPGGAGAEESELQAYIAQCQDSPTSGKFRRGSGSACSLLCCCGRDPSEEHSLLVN
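TRPML1-DL cells, Tet-induced overnight (~16 h, 37 °C) at 1,500 cells/well, were loaded with Ca8 no-wash dye plus quencher for 45-90 min at room temperature. Compounds were pinned during FDSS kinetic reading; agonist 54-4 at EC80 (4 uM final) then added.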
Six1-Eya2 inh: blocks human Six1 binding to Eya2. AlphaScreen GST-Six1/His-Eya2 binding, biochemical; active compounds read low; control for the full effect not named in the record. Q15475+O00167. actives 0.56% (n = 360,000). activity change, % (concentration not given with the values); in the data active = activity change below about -65%; inconclusive = about -30% to -65%; inactive = above about -30%; also: % is scaled to controls: 0 for no effect and ±100 for the full control effect
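Homogeneous AlphaScreen proximity assay pairing GST-Six1 with His-tagged Eya2 (added as 5X mix: 250 nM and 500 nM) in 50 mM Tris pH 8.0, 300 mM NaCl, 1 mM TCEP. Glutathione donor and nickel acceptor beads; 1 h, 37 °C, dark.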
D2 potentiator: positive allosteric modulators of human D2 dopamine receptor; P14416; DiscoveRx D2 beta-arrestin cells, luminescence, 90 min; 100% = 57 uM dopamine signal; potentiation, % (test concentration not listed); actives 0.23% (n = 360,000); AID 624464; active = potentiation of 50% or more; inconclusive = 30% to 50%; inactive = 30% or less;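 also: compound concentration not given in the record; tested on top of an EC20 dose of dopamine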
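D2 cells co-treated with compound plus 50 nM dopamine (EC20) for 90 min at 37 deg C to detect potentiation. Beta-arrestin recruitment was read as enzyme-fragment luminescence after 1 h at ambient temperature. Full response was set by 57 uM dopamine.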
TRPML1 agonist: human mucolipin-1 channel agonism; activation, % (test concentration not listed); AID 624414; TRPML1-expressing cells, Ca2+ dye fluorescence, FDSS; host cell line not named in the record; reference of the full effect not given here; actives 0.12% (n = 410,000); in the data active = activation above about 50%; inconclusive = about 30% to 50%; inactive = below about 30%; also: 0% is about no effect; the text of the record puts the active cut at 80%
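Kinetic FDSS Ca2+ read in Tet-induced TRPML1-DL cells (ABD Ca8 dye plus quencher, 45-90 min RT loading): baseline, then compound, then 110 s agonist window; EC80 agonist 54-4 at 4uM final added afterwards for a 110 s antagonist window.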
* marks the source's active call; other numbers are inactive results; u = inconclusive; x = no result given; & = joins results of further samples; [ ] = remark or other dose.

Values run as follows: PINK1 modulator, D2 agonist, TRPML1 inh, Six1-Eya2 inh, D2 potentiator, TRPML1 agonist
- c1cncc(-c2nc3cc4ccccc4cc3[nH]2)c1
    1.3%[38.3 µM], 2.6, -6.4, 0.0, 6.5, 0.6
- O=C(Nc1nc(-c2ccc3c(c2)OCCO3)cs1)C1CCCC1
    4.4%, 0.8, -9.5, -1.3, -3.7, 1.3
- CCCc1cnc2c(c1SCC(=O)N(C)c1ccccc1)c(=O)n(C)c(=O)n2C
    -0.7%, x, -29.1, x, x, -0.6
- Cc1cc(NC(=O)CSc2nc3c([nH]c4ccccc43)c(=O)n2-c2cccc(C(F)(F)F)c2)no1
    4.3%, 1.5, 0.7, -12.5, -1.7, 0.9
- COC(CNc1ncnc2c1cnn2C)OC
    0.5%, 4.4, 1.8, 6.8, -0.9, 0.6
- Cc1ccc(NCc2cc3cc4c(cc3n(CC(=O)Nc3ccc(F)cc3F)c2=O)OCCO4)cc1
    -0.7%, x, 5.8, x, x, 3.7
- O=C1N[C@H](Cc2ccccc2)COC(=O)[C@H](Cc2ccc(F)cc2)CC/C=C/C[C@H]1CC(=O)N(CCO)Cc1ccccc1
    -0.2%, -3.8, -10.4, -2.9, -13.4, 0.1
- Cc1ccc(NC(=O)CCCn2c(=O)c3cccn3c3cccnc32)cc1C
    5.0%, x, 2.6, x, x, 0.2
- Cc1cc(C)c(C)c(S(=O)(=O)NCCCN2CCCC2=O)c1C
    -0.8%, -1.6, -6.8, -1.3, -7.1, -0.4
- COC(=O)c1scc(C)c1N/N=C(\C)c1cc(F)c(Cl)cc1F
    2.1%, -0.7, 9.1, -12.4, -7.3, -0.7
- O=C(CNS(=O)(=O)c1ccc(Br)s1)NCc1ccc2c(c1)OCO2
    -1.5%[38.3 µM], -4.1, -5.1, -0.3, -9.8, -0.2
- C#CCOCCOCCOCCNc1nc(N2CCN(C(=O)Cn3cc(CCCCN)nn3)CC2)nc(N2CCN(C(=O)[C@H]([C@@H](C)CC)n3cc(CCCN=C(N)N)nn3)CC2)n1
    1.0%, -1.9, 31.0, 1.6, -3.5, -0.8
- O=C(N/N=C/c1ccco1)C1CC1
    -1.4%, -2.6, 1.8, 4.4, 4.0, -0.5
- COc1ccc(OC)c(NC(=O)CSc2nnc(-c3ccco3)n2-c2ccccc2)c1
    1.4%[38.3 µM], 1.6, -2.2, -14.4, -8.0, 1.9
- CCOC(=O)c1c(NC(=S)NC(=O)c2cnn(CC)c2)sc2c1CCC(C)C2 (configuration not stated)
    4.4%, -4.9, 54.9, 3.5, -9.8, -0.2
- COc1ccc(CC(=O)N2CCN(S(=O)(=O)c3cccs3)CC2)cc1OC
    -0.8%, -5.4, 11.7, 3.8, -11.9, -0.2
- c1ccc2c(NC3=NCCCCS3)cccc2c1
    1.1%, -3.7, 12.2, 23.3, -16.4, 0.7
- CCOc1cc(-n2cnnn2)c(OCC)cc1NC(=O)c1cnccn1
    x, -1.1, -0.3, 1.8, 2.5, 0.6
- CCOc1cc(C2NC(=O)NC(C)=C2C(=O)OC(C)CC)cc(Br)c1O (configuration not stated)
    0.4%, -1.4, 2.3, -1.7, 5.4, -0.8
- COc1ccccc1NC(=S)NCCc1ccccc1
    -0.6%, 1.0, 5.0, -5.1, 2.1, -0.8

One compound at a time (already shown).
COC(CNc1ncnc2c1cnn2C)OC in the list: PINK1 modulator = 0.5%; D2 agonist = 4.4; TRPML1 inh = 1.8; Six1-Eya2 inh = 6.8; D2 potentiator = -0.9; TRPML1 agonist = 0.6
COc1ccc(OC)c(NC(=O)CSc2nnc(-c3ccco3)n2-c2ccccc2)c1 in the list: PINK1 modulator = 1.4%[38.3 µM]; D2 agonist = 1.6; TRPML1 inh = -2.2; Six1-Eya2 inh = -14.4; D2 potentiator = -8.0; TRPML1 agonist = 1.9

(further entries)
Values run as follows: PINK1 modulator, D2 agonist, TRPML1 inh, Six1-Eya2 inh, D2 potentiator, TRPML1 agonist
- Cc1noc(C)c1C(=O)NC1CCCc2ccccc21 (configuration not stated)
    0.8%[38.3 µM], 1.3, 5.7, 6.8, -11.8, -0.8
- CN(CC(=O)Nc1ccc(Cl)c(C(F)(F)F)c1)CC(=O)NC1CCCCC1
    12.3%, 1.7, 9.7, 3.4, -4.4, 2.0
- CCOC(=O)c1c(NC(=O)C2=C(C)NC(=S)NC2c2ccc(F)cc2)sc(C)c1C (configuration not stated)
    -4.4%, -2.3, 47.3, 0.1, -6.3, 1.9
- CC[C@@]12C(=O)N(c3cccc(Br)c3)C(=O)N1[C@H](c1ccc(OC)cc1)[C@@H]1C(=O)N(C(C)(C)C)C(=O)[C@@H]12
    1.1%, -1.4, -9.7, -7.7, -15.6, 0.9
- COc1ccc(C2=NN(CC(=O)Nc3cc(C)ccc3C)C(=O)CC2)cc1
    1.9%, -0.3, 2.0, 19.1, -5.6, 0.7
- C[C@@H]1CC=C[C@H]2[C@H]1C(=O)N(Cc1ccccc1)[C@H]2c1ccc(Br)cc1F
    18.0%, -4.6, 11.3, 0.5, -5.4, 1.6
- CCOC(=O)C1(C)CCCN(C(=O)c2cc(C#N)cs2)C1 (configuration not stated)
    3.9%, -1.3, 39.8, 28.0, -0.9, 0.4
- Cc1noc(C)c1NC(=O)N(C)C[C@H]1Oc2ccc(NC(=O)CCN3CCOCC3)cc2C(=O)N([C@H](C)CO)C[C@@H]1C
    -0.1%, -1.3, 7.6, 4.5, -2.9, -0.4
- COc1cc(Nc2cccc(-c3ccccc3)n2)cc(OC)c1OC
    4.4%, -2.1, x, -19.4, -9.0, -1.0
- Cc1c(C(=O)O)oc2c(F)cccc12
    -0.9%, -3.2, 13.4, 9.1, 2.6, -0.9
- O=C(CCCn1ncn2c(cc3occc32)c1=O)NCc1ccccc1F
    -1.2%&-0.7%, 5.1, -10.2&4.0, 3.8, -6.3, -0.6&-1.0
- CN1CCN(c2ccc(NC(=O)c3ccc(-c4ccc(Br)cc4)o3)cc2)CC1
    -2.1%, 6.1, -16.9, u, -2.4, -0.4
- CCc1noc(C)c1C(=O)N1CCN(S(=O)(=O)c2ccc(Br)cc2Cl)CC1
    -2.2%, -2.0, 1.7, 21.6, -5.6, -0.4
- O=C1Nc2ccccc2C(O)(C(=O)NCc2ccco2)N1c1ccccc1 (configuration not stated)
    3.9%, -0.8, 13.2, 3.3, -8.7, 0.1
- CC(C)=NOCC(=O)Nn1c(COc2c(C)cccc2C)nc2ccccc2c1=O
    1.4%, 2.5, -4.3, -1.2, -2.2, -0.2
- Cc1nc2ccccn2c1C(=O)N/N=C/c1ccccc1Cl
    1.0%, 1.5, 2.5, -1.9, 0.8, -1.0
- CC(SCc1cc(=O)n2c([nH]c3ccccc32)c1C#N)C(=O)O (configuration not stated)
    0.8%, -0.5, 8.4, -11.2, -8.4, 0.6
- Cc1nc(N2CCC(C)CC2)c2c(C)c(C(=O)Nc3cccc(C(F)(F)F)c3)sc2n1
    20.2%, -0.7, 63.4, 1.8, -4.8, 2.6
- Cc1cc2occ(CC(=O)NCc3cccs3)c2cc1C(C)C
    1.8%, -0.7, -17.3, 1.6, -7.4, 0.5
- N=C(N)Sc1nc(N2CCCCC2)nc(N2CCCCC2)n1
    0.5%, 0.5, -4.3, 8.4, -3.8, 0.0
- CCn1c2ccc(C)cc2c2nnc(NN)nc21
    u, -5.4, 7.7, -28.6, -17.3, -0.3
- COc1cccc(CNC(=O)C2CCC(CNS(=O)(=O)c3cccc4nsnc34)CC2)c1 (configuration not stated)
    1.5%, 0.7, 7.5, -14.4, 0.5, -0.5
- O=C(NCc1ccccc1)c1ccc(CS(=O)(=O)Cc2ccc(F)cc2)o1
    0.2%, 7.5, -2.4, -0.9, -7.5, -0.5
- CCc1nc2ccc(C(=O)N(CC)CCN(C)C)cn2c1N(CC)CCOC
    0.5%, 5.3, x, 1.0, 1.2, -0.2
- Cc1c(Cl)cccc1N1C(=O)C(N2C(=O)c3cccc([N+](=O)[O-])c3C2=O)C1c1cccs1 (configuration not stated)
    7.5%[38.3 µM], 0.5, -3.1, -2.2, 0.0, 0.6
- O=C(NCc1ccc2c(c1)OCO2)c1cc(-c2ccccc2Cl)on1
    -2.2%, -4.4, 6.2, -1.8, -28.4, 0.7
- CN(C)c1cccc(C(=O)NCCCSc2ccccc2)c1
    -1.1%, -3.9, 4.2, -20.2, -20.2, 0.7
- CCN(CC(=O)Nc1ccccc1OC)C(=O)CN1C(=O)NC2(CCCC2)C1=O
    -4.3%, -19.4, -8.2, 2.4, -12.3, 0.6
- CNC(=O)c1cc(Cl)c(OC)c(OC)c1
    1.7%, -4.6, -2.4, -5.9, -9.1, -0.3
- CCC(CO)Nc1ncnc2onc(-c3ccc(F)cc3)c12 (configuration not stated)
    1.7%, 0.5, -19.3, 2.6, -3.0, -0.4
- CCc1nn(CC(=O)N2CCN(c3cccc(C(F)(F)F)c3)CC2)c(=O)c2cccn12
    -0.5%, x, -6.0, x, x, 0.8
- COc1ccc(C)cc1S(=O)(=O)NC(C)C(=O)Nc1ccc2c(c1)OCO2 (configuration not stated)
    -0.5%, 0.1, -4.1, -0.5, -10.7, -0.3
- Cn1nc(C(F)(F)F)c(-c2ccccc2)c1NC(=O)c1ccco1
    0.6%, -4.0, 2.0, 3.3, -16.9, -1.2
- CC(=O)c1cccc(NC(=O)c2noc3c2CCc2ccccc2-3)c1
    6.4%, -5.3, -11.2, 6.8, -9.6, 1.1
- COc1ccc(NC(=O)CCn2c(=O)c3cccn3c3ccccc32)cc1
    -1.1%, -3.2, 1.0, -14.2, -31.8, -0.5
- Cn1c(=O)oc2cc(S(=O)(=O)NCc3ccc(F)cc3)ccc21
    1.0%, -2.7, -1.8, 0.6, 1.1, 0.9
- CC(C)c1nnc(NC(=O)Cn2nc(-c3ccc4c(c3)OCCO4)ccc2=O)s1
    -1.6%[38.3 µM], -0.7, 20.3, -1.4, 3.9, 3.0
- CCOCCCNC(=O)N[C@@H](C)C(=O)OC
    1.9%[38.3 µM], -3.8, 21.9, 1.6, -0.4, 0.8
- CCOCC(=O)Nc1nnc(COC)s1
    -1.1%, 0.2, -6.6, 2.2, -8.0, 0.4
- OC(CC#CCN1CCCCC1)(c1ccccc1)c1ccccc1
    0.7%, -5.2, 8.6, -7.8, -35.6, 0.3
- CC1CCC2(CC1)NC(=O)N(CC(=O)N1CCN(C(=O)c3cccs3)CC1)C2=O (configuration not stated)
    -1.4%, -0.1, -12.2, 3.4, -1.8, -0.3
- CN(C(=O)c1c[nH]c(=O)cc1C(F)(F)F)c1ccc(Cl)cc1
    -0.7%, -3.2, -8.9, 5.2, -3.7, 1.4
- Cc1ccc(C2=CSC3=NCCN23)c(C)c1
    -1.9%, -2.5, -11.9, 2.5, -8.7, -0.9
- Cc1ccc(C(=O)Nc2nnc(S(=O)(=O)N3CCc4ccccc43)s2)cc1
    -0.7%, x, 1.8, x, x, 0.0
- CCC(c1nnnn1Cc1ccccc1)N1CCN(c2ccccc2)CC1 (configuration not stated)
    0.8%, 0.5, -7.4, -13.3, -0.3, 1.5
- CCc1ccc(NC(=O)c2ccc(C3SCC(=O)N3CCc3ccccc3)cc2)cc1 (configuration not stated)
    2.0%, -3.0, 0.4, -3.9, -9.4, -0.5

Screens as filed in PubChem BioAssay.
